Screens deposited in PubChem by several laboratories.
CBX7 AlphaScr: CBX7 chromodomain binding inhibitors, primary screen, biochemical, AlphaScreen; Chromobox protein homolog 7 (Homo sapiens), O95931; AlphaScreen His6-CBX7 / biotin-H3K27me3 peptide binding; active compounds read low; normalised signal (fraction of DMSO) (concentration not given with the values); AID 1224903, 2016; hit rate 1.1% among 66,000; in the data active means normalised signal below about 0.5;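 further: 100 nL library stock added to about 20 µL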
Target sequence (O95931 whole entry, looked up): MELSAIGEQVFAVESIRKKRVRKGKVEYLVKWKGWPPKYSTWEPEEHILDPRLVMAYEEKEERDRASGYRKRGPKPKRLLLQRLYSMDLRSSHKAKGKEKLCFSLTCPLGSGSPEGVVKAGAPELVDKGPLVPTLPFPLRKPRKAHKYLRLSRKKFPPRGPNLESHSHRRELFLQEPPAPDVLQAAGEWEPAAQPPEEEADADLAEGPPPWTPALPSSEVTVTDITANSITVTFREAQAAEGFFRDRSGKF
CBX7 AlphaScr z-score: also measured in CBX7 AlphaScr; calls as there; z-score; measured here: z-score of CBX7 signal; some inactives read as strong as hits; reference of the scale not given here;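 same signal on another scale; lower means less binding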
The depositor's hits bear a star; & = joins results of further samples. Not all compounds are listed (hit frequency here may not be typical).

structure | CBX7 AlphaScr | CBX7 AlphaScr z-score
O=C(NCCN=C1NS(=O)(=O)c2ccccc21)c1ccc(S(=O)(=O)N2CCCCC2)cc1 | 1.1 | 1.8
O=C(NCc1ccccc1)C(O)(c1ccc(Cl)cc1)c1ccc(Cl)cc1 | 1 | 0.34
COCCCNC(=O)C1CCCN(Cc2nc(-c3ccccc3C)oc2C)C1 (stereo not drawn) | 0.85 | -1.8
N#Cc1cccc(NC(=O)CCc2nc(-c3cccs3)no2)c1 | 1 | 1.4
Cc1ccc(C2NC(=O)c3c(sc4c3CCCC4)N2)c(O)c1 (stereo not drawn) | 0.82 | -3.1
CC(=O)Nc1cccc(Oc2nnc(-c3ccc(C)c(C)c3)c3ccccc23)c1 | 1 | 0.65
Cc1nc2cc(-c3ccccc3)nn2c(C)c1CCC(=O)NC(C)c1ccc2c(c1)OCCO2 (stereo not drawn) | 1 | 1.3
Cc1sc2nc(Cc3ccccc3)nc(Nc3cccc(C(F)(F)F)c3)c2c1C | 1.1 | 0.14
CCC(C)N1CC(C(=O)NCCc2ccc(Cl)cc2)CC1=O (stereo not drawn) | 1 | 2.3
CCC(C)NC(=O)c1cc(-c2ccccc2OC)on1 (stereo not drawn) | 1.1 | 0.066
COCCNc1ncnc2scc(-c3ccccc3)c12 | 0.98 | -0.67
Cc1ccccc1N(C)S(=O)(=O)c1ccc2[nH]cc(C(=O)NC(C)C)c(=O)c2c1 | 0.94 | -0.59
Cc1ccc(-c2nnc(Nc3ccc(OCC(N)=O)cc3)c3ccccc23)cc1 | 0.72 | -5.3
Cc1ccc(-c2nnc(N3CCOCC3)c3ccccc23)cc1S(=O)(=O)NCc1cccnc1 | 0.94 | -1.1
CCOC(=O)c1[nH]c2c(c1-c1ccccc1)C(=O)CC(c1ccccc1)C2 (stereo not drawn) | 0.97 | -0.22
O=C(NCc1ccccc1)c1ccc2c(c1)N(Cc1cccc(Cl)c1)C(=O)c1ccccc1S2 | 1 | 0.29
CCCNC(=O)Cn1cnc2sc(C(=O)Nc3ccc(Br)cc3C)c(C)c2c1=O | 1 | 0.6
O=C1CC(Cc2ccccc2)C(=O)N1c1ncccn1 (stereo not drawn) | 1 | 0.89
COc1ccc(CCNCC(O)Cn2c3c(c4ccccc42)CCN(C)C3=O)cc1OC (stereo not drawn) | 1.1 | 2.1
Cc1ccc(C)c(NC(=O)C(=O)NCc2cccnc2)c1 | 1.1 | 2.4
Cc1ccccc1Cn1c(=O)n(CCC(=O)NCc2ccc3c(c2)OCO3)c(=O)c2sccc21 | 1 | 0.6
CCSc1nnc(NC(=O)c2ccncc2)s1 | 0.95 | -0.99
O=C(Nc1cccc(-c2nc3cc(Cl)ccc3o2)c1)c1cccc2ccccc12 | 0.99 | -0.16
COc1ccc(C2CC(C(F)(F)F)n3nc(C(=O)NCCc4ccccc4)cc3N2)cc1 (stereo not drawn) | 0.98 | -0.33
O=C(COc1ccccc1)Nc1cccc(-c2nc3ncccc3o2)c1 | 0.98 | -0.19

The closing 6 compounds of the part above open the next one:
structure | CBX7 AlphaScr | CBX7 AlphaScr z-score
Cc1ccc(C)c(NC(=O)C(=O)NCc2cccnc2)c1 | 1.1 | 2.4
Cc1ccccc1Cn1c(=O)n(CCC(=O)NCc2ccc3c(c2)OCO3)c(=O)c2sccc21 | 1 | 0.6
CCSc1nnc(NC(=O)c2ccncc2)s1 | 0.95 | -0.99
O=C(Nc1cccc(-c2nc3cc(Cl)ccc3o2)c1)c1cccc2ccccc12 | 0.99 | -0.16
COc1ccc(C2CC(C(F)(F)F)n3nc(C(=O)NCCc4ccccc4)cc3N2)cc1 (stereo not drawn) | 0.98 | -0.33
O=C(COc1ccccc1)Nc1cccc(-c2nc3ncccc3o2)c1 | 0.98 | -0.19
CCCSc1oc(-c2ccccc2)nc1S(=O)(=O)c1ccc(Br)cc1 | 1 | 0.33
O=C(CSc1nc2ccccc2o1)Nc1ncc(Br)cc1Br | 0.9 | -2.5
COc1ccc(-c2cc(C(F)(F)F)n3nc(C(N)=O)cc3n2)cc1OC | 1 | 0.25
N#Cc1c(N2CCCC2)nc(-c2ccccc2)c2c1CCCC2 | 1.1 | 3.4
Cc1cc(C)cc(NS(=O)(=O)c2ccc3[nH]cc(C(=O)N(C)CCC#N)c(=O)c3c2)c1 | 0.94 | -0.27
Cc1ccc(Cn2nnc3c(=O)n(CC(=O)N4CCCCCC4)cnc32)cc1 | 0.87 | -2.2
CC1CCc2c(C(=O)NCC(C)c3ccccc3)csc2C1 (stereo not drawn) | 1.1 | 4.7
O=C(Nc1ncc(Cc2ccc(F)cc2)s1)c1ccc(Br)cc1 | 1 | 0.36
CCOc1ccc2c(c1)c(=O)c(S(=O)(=O)c1ccccc1)cn2Cc1cc(C)ccc1C | 0.97 | -0.88
Cc1ccccc1Nc1c(-c2ccccn2)nc2ccc(Br)cn12 | 0.92 | -0.81
COc1ccc(-n2nnnc2S(=O)(=O)CC(=O)Nc2ccc(F)cc2)cc1 | 0.92 | -0.84
Cc1ccc(-c2nn(CC(=O)Nc3cccc(Cl)c3)c(=O)c3ccccc23)cc1 | 0.89 | -2.3
O=C(Cn1nc(Cc2cccnc2)c2ccccc2c1=O)Nc1cccnc1 | 0.96 | -1.3
O=C(Cn1nc(-c2ccccc2)c2ccccc21)NCc1ccccc1 | 0.96 | -0.4
CCN(C(=O)c1ccc2c(=O)n3c(nc2c1)CCCCC3)c1ccc(OC)cc1 | 0.86 | -2.3
Cc1noc(C)c1S(=O)(=O)NCCc1ccc(Cl)cc1 | 1 | 1.5
Cc1ccccc1Nc1nc(-c2ccc(NC(=O)c3ccccc3)cc2)cs1 | 0.99 | -0.016
COc1ccc(CCNC(=O)c2cc(-c3ccccc3O)on2)cc1OC | 1.1 | 0.07
CC1(C)CC2(CC(c3ccccc3)Oc3cc(O)ccc32)NC(=O)N1 (stereo not drawn) | 1 | 0.06
Cc1nn(Cc2ccccc2)c(C)c1NS(=O)(=O)c1ccccc1 | 1 | 2.1
CCN1C(=O)c2ccccc2S(=O)(=O)c2ccc(C(=O)NCCN3CCCCC3C)cc21 (stereo not drawn) | 0.99 | -0.15
O=C(NCCc1ccc(Cl)cc1)C1C2C=CC3(CN(Cc4ccccc4Cl)C(=O)C13)O2 (stereo not drawn) | 1 | 1.1
COc1ccc2cc(CCNC(=O)COc3ccccc3)c(=O)[nH]c2c1 | 1.1 | 1.5
O=C(C1CCC1)N1CCc2cc(S(=O)(=O)NCc3ccccc3)ccc21 | 0.99 | -0.23
CC(C)N(Cc1nc(-c2ccc(Cl)cc2)no1)C(=O)CCC1CCCC1 | 1.1 | 0.69
COc1ccc(-n2c(Cc3cc(=O)[nH]c(=O)[nH]3)nnc2SCc2cccc(Cl)c2)cc1 | 0.83 | -2.6
CCn1c(SCC(=O)Nc2ccccc2C(F)(F)F)nnc1-c1c[nH]c2ccccc12 | 1.2 | 1.4
CCCc1cc(=O)[nH]c(SCC(=O)Nc2cc(C(F)(F)F)cc(C(F)(F)F)c2)n1 | 0.72 | -2.7
CCCN1CCN(C(=O)CN2C(=O)COc3ccc(S(=O)(=O)N4CCOCC4)cc32)CC1 | 1 | 0.25
CCOC(=O)c1ccc(NC(=O)CSc2nnc(-c3cccnc3)n2CC)cc1 | 1 | 0.28
O=C(Nc1sc2c(c1C(=O)N1CCCCCC1)CCCC2)c1ccccc1F | 1 | 0.18
COc1ccc2oc(=O)c(-c3csc(Nc4ccccc4F)n3)cc2c1 | 1.3 | 3.1
CCCCn1c(NCc2cccs2)nc2ccccc21 | 1.1 | 1.5
CCn1c(C(=O)NCc2ccc(OC)cc2)cc2sc(Cl)cc21 | 1 | 1.4
Cc1cc(=O)n2nc(N3CCCC(C(=O)NCc4cccc(Cl)c4)C3)sc2n1 (stereo not drawn) | 1 | 0.25
CC(C)c1ccc(NC(=O)c2cnc(N3CCN(c4ncccn4)CC3)c3ccccc23)cc1 | 1.1 | 0.51
COc1cccc(-c2cc(C(F)(F)F)n3nc(-c4ccccc4)cc3n2)c1 | 1.1 | 2.9
CCCCN(CC)CCNC(=O)c1cc(-c2ccc(OCC)cc2)nc2ccccc12 | 1 | 0.93
CCOc1ccccc1NC(=O)c1c(NCc2sccc2C)sc2c1CCC(C)C2 (stereo not drawn) | 0.91 | -1.3
COc1ccc2sc(N3C(=O)CC(Cc4cc(C)cc(C)c4)C3=O)nc2c1 (stereo not drawn) | 0.83 | -1.8
Cc1ccc2c(c1)N(CC(=O)NC1CCC(C)CC1)C(=O)CO2 (stereo not drawn) | 1.2 | 3.6
Cc1ccc(S(=O)(=O)N(CC(=O)N2CCN(Cc3ccccc3)CC2)c2ccccc2F)cc1 | 0.67 | -1.3
Cc1ccc(CNC(=O)c2cc(Nc3ccccc3)nc3ccccc23)cc1 | 0.95 | -0.84
COc1ccc2[nH]cc(CCNC(=O)Nc3ccc(F)cc3)c2c1 | 1 | 0.36
Cc1c(C(=O)Nc2ccc(F)cc2Cl)sc2ncn(Cc3ccccc3F)c(=O)c12 | 1 | 0.063
Cc1ccc(S(=O)(=O)c2c[nH]c3ccccc3c2=O)cc1C | 1.1 | 1.7
Cc1ccccc1-c1nc(CN2CCC(C(=O)N3CCN(c4ccccn4)CC3)CC2)c(C)o1 | 1 | 0.14
COc1ccc(CC(=O)N2CC(=O)Nc3ccc(F)cc3C2c2ccccc2)cc1OC (stereo not drawn) | 0.93 | -1.7
Cc1ccc(-c2cc(C(F)(F)F)n3ncc(C(=O)Nc4cc(C)ccc4C)c3n2)cc1 | 1.1 | 1.1
Cc1ccc(NC(=O)CCc2nnc3ccc(N4CCC5(CC4)OCCO5)nn23)cc1C | 1 | -0.036

Continuation.
structure | CBX7 AlphaScr | CBX7 AlphaScr z-score
COc1ccc(C2C(C(=O)NCC3CCCO3)CCC(=O)N2c2ccc3c(c2)OCO3)cc1 (stereo not drawn) | 0.93 | -0.76
CC1CCN(c2nc3ccc(C(=O)NCCCc4ccccc4)cc3s2)CC1 | 0.96 | -0.98
O=C(Cn1cnc2c(nnn2Cc2ccc(F)cc2)c1=O)Nc1ccc2c(c1)OCCO2 | 0.92 | -1.3
CCCCc1nc(N2CCC(C)CC2)c(C#N)c2c1COC(C)(C)C2 | 1.2 | 2.6
CCOc1ccc(-c2nc3sc4c(c3c(=O)[nH]2)CCCC4)cc1OCC | 1.2 | 1.3
Cc1c2c(c(C)n1C)C(C(=O)NC1CCC(C)CC1)N(c1cccc(F)c1)C2=O (stereo not drawn) | 0.87 | -1.4
CC1CCN(C(=O)CSc2nnc(CNC(=O)c3cccs3)o2)CC1 | 1 | 1.6
COc1ccccc1-c1cc(=O)n(CC(=O)NC(C)c2ccccc2)c2c1CCCC2 (stereo not drawn) | 0.9 | -3.9
Cc1cccc(Cc2c(C)nc3c(C(=O)N4CCN(c5cc(C)ccc5C)CC4)cnn3c2C)c1 | 1.1 | 2.5
COc1cccc(-c2nc(C(=O)NCCc3ccc(OC)c(OC)c3)c(C)o2)c1 | 0.97 | -0.49
Cc1onc(-c2ccccc2)c1C(=O)NC(C)CCCC(C)C (stereo not drawn) | 0.95 | -0.52
COc1ccccc1Nc1nc(-c2c(C)nc3sccn23)cs1 | 0.32* | -14*
Cc1ccc2c(c1)c(-c1ccccc1)c(-c1ccccc1)n2CC(O)CNC1CCCCC1 (stereo not drawn) | 0.56 | -6.3
CC(=O)N1CCc2cc(S(=O)(=O)Nc3ccccc3C)ccc21 | 0.99 | -0.47
Cc1ccc(-c2nnc(Nc3ccc(O)cc3)c3ccccc23)cc1S(=O)(=O)N1CCN(C)CC1 | 0.89 | -0.13
Cc1cc(Nc2ccccc2Cl)n2nnnc2n1 | 0.84 | -2.1
COc1ccc2c(c1)c(=O)c(S(=O)(=O)c1ccccc1)cn2CC(=O)Nc1cccc(Cl)c1 | 0.94 | -0.84
Cn1c(=O)c(=O)n(C)c2cc(S(=O)(=O)Nc3cccc(F)c3)ccc21 | 0.88 | -1.9
CC(Oc1ccccc1Cl)C(=O)Nc1c(C(=O)c2ccccc2)oc2ccccc12 (stereo not drawn) | 1.3 | 0.88
CCOCCCNC(=O)c1csc2c1CCCCC2 | 1.1 | 2.4
Cc1ccc2c(c1)c(Sc1ccccc1)c(CC(=O)NCCCO)n2C | 0.99 | -0.16
Cc1cccc(-c2nc(C(=O)NCc3ccccc3Cl)c(C)o2)c1 | 0.92 | -1.1
Cc1ccc(OCC(=O)NCc2ccncc2)cc1 | 0.92 | -0.74
Nc1ccc(Cl)c(-c2nc3cc(Cl)ccc3o2)c1 | 1.1 | 2.6
COc1ccc(-c2noc(CCC(=O)NCCCN3CCCCCC3)n2)cc1 | 1.1 | 0.8
CCOc1ccc(N2C(=O)CC(NCCc3ccc(OC)c(OC)c3)C2=O)cc1 (stereo not drawn) | 1.3 | 2.3
O=C(Nc1ccc2oc(-c3cc(Br)ccc3Cl)nc2c1)c1cc2ccccc2o1 | 0.85&0.88 | -1.9&-2
O=C(N1CCCCC1)N1c2ccccc2CC(N2CCCCC2)c2ccccc21 (stereo not drawn) | 0.96 | -0.42
CC(=O)Nc1ccc(N2C(=O)CC(NCCCN3CCOCC3)C2=O)cc1 (stereo not drawn) | 0.96 | -0.48
CCCNC(=O)Cn1cnc2sc(C(=O)N3CCN(CCC)CC3)c(C)c2c1=O | 1 | 1.2
Cc1ccccc1-c1nc(CS(=O)(=O)CC(=O)NCCC(C)C)c(C)o1 | 1 | 0.79
CCc1ccc(C(=O)CC2(O)C(=O)Nc3ccc(Br)cc32)cc1 (stereo not drawn) | 0.97 | -0.064
Cc1c(NC(=O)C(C)(c2ccccc2)c2ccccc2)cccc1-c1nc2ncccc2o1 | 0.77 | -1.5

In the list so far, these have a furan ring, fused or not.
structure | CBX7 AlphaScr | CBX7 AlphaScr z-score
CC(Oc1ccccc1Cl)C(=O)Nc1c(C(=O)c2ccccc2)oc2ccccc12 (stereo not drawn) | 1.3 | 0.88
O=C(Nc1ccc2oc(-c3cc(Br)ccc3Cl)nc2c1)c1cc2ccccc2o1 | 0.85&0.88 | -1.9&-2
